Compound activity as filed in PubChem.
DUX4 txn inh: blocks DUX4-driven transcriptional activation; 293T-iDUX4 ZSCAN4-Gaussia luciferase reporter, 24 h; active compounds read low; 0.8% of 37,000 active; activity change, negative = inhibition, % (no concentration beside the values);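 active = -10% or lower and over 25 points stronger than a control reporter; inconclusive = -10% or lower with a smaller gap; inactive = above -10%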;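 note: 0% = median of neutral control wells and -100% = median of positive control wells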
DUX4 txn inh difference: further read-out of DUX4 txn inh, marked with its call; Gaussia minus Italica difference, %; measured here: selective DUX4 reporter inhibition;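 worked out from the two reporters; negative = selective loss of the DUX4 reporter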
DUX4 txn inh control: second read-out of DUX4 txn inh, no call of its own (marks repeat the call); activity change, negative = inhibition, %; measured here: Italica tet-on control reporter;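 0 = neutral control and -100 = positive control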
* marks the source's active call; other numbers are inactive results; u = inconclusive; x = no result given. Not all compounds are listed; the hit share may differ from the screen's.

SMILES	DUX4 txn inh	DUX4 txn inh difference	DUX4 txn inh control
C[C@H](CO)N1C[C@H](C)[C@@H](CN(C)Cc2ccc(C(=O)O)cc2)Oc2ccc(NC(=O)CCN3CCOCC3)cc2CC1=O	-1.6	-0.9	-0.7
O=C(C[C@H]1CC[C@@H]2[C@H](COC[C@@H](O)CN2Cc2cc(F)ccc2F)O1)NCc1ccc(Oc2ccccc2)cc1	u	x	x
CN1C(=O)c2cc(NC(=O)c3cnccn3)ccc2OC[C@H]2O[C@H](CC(=O)NC3CCC3)CC[C@@H]21	-6.6	4.0	-10.7
O=C(N[C@H]1CC[C@H](CCn2cc(C3CC3)nn2)O[C@@H]1CO)c1cccnc1	0.1	-0.9	1.0
C[C@H](CO)N1C[C@H](C)[C@H](CN(C)S(C)(=O)=O)Oc2ncc(-c3ccc(F)cc3)cc2C1=O	-1.8	-1.2	-0.5
O=C(Nc1cccc(F)c1)N1C[C@H]2[C@@H](c3ccccc31)[C@H](CO)N2C(=O)C1CCOCC1	-1.8	-3.8	2.0
CO[C@H]1CC[C@H]2CCOc3c(C#N)cccc3C(=O)N(C)C[C@H](c3ccccc3)CC(=O)N(C)C[C@H]1O2	4.7	13.5	-8.8
CCCC(=O)Nc1ccc2c(c1)C(=O)N(C)[C@@H]1CC[C@@H](CC(=O)OC)O[C@@H]1CO2	4.7	3.1	1.6
CCC(=O)N1CC[C@@H]2[C@@H](CO)Nc3ccc(-c4ccc(OC)cc4)cc3[C@@H]21	7.7	11.6	-3.9
COc1cccc(CNC(=O)C[C@@H]2C=C[C@H](NC(=O)C3CCOCC3)[C@H](CO)O2)c1	2.4	2.2	0.2
COCC#Cc1cnc2c(c1)C(=O)N([C@@H](C)CO)C[C@@H](C)[C@@H](CN(C)C(=O)Nc1ccccc1OC)O2	-0.5	-1.8	1.3
O=C(C[C@H]1C[C@H]2c3cc(NC(=O)CC4CC4)ccc3O[C@H]2[C@@H](CO)O1)NCCN1CCCCC1	-4.5	-10.2	5.7
COc1ccc(NC(=O)N(C)C[C@@H]2OCCCC[C@@H](C)Oc3ccc(NS(=O)(=O)c4cccs4)cc3C(=O)N([C@H](C)CO)C[C@H]2C)cc1	-1.4	-4.6	3.2
CC=Cc1ccc2n(c1=O)C[C@H]1[C@H](CO)[C@@H](C(=O)NC3CCCC3)N(Cc3nccs3)[C@@H]21 (mixture of isomers)	1.2	4.4	-3.3
CN1C(=O)c2cc(NC(=O)c3ccno3)ccc2OC[C@H]2O[C@@H](CC(=O)Nc3ccccc3)CC[C@@H]21	1.3	0.2	1.1
COc1ccc2c3c([nH]c2c1)[C@@H](CO)N(Cc1ccc(Cl)cc1)CC31CN(Cc2ccccc2)C1	u	x	x
COc1cccc(S(=O)(=O)N2CC3(CCN(C)CC3)c3c(n(C)c4cc(OC)ccc34)[C@H]2CO)c1	u	x	x
CC(=O)N1[C@@H]2c3ccc(-c4ccccc4F)c(=O)n3C[C@@H]2[C@@H](CO)[C@@H]1C(=O)N(C)C	3.5	1.1	2.4
CC(C)NC(=O)N(C)C[C@H]1Oc2ccc(NC(=O)Nc3ccc4c(c3)OCO4)cc2CC(=O)N([C@H](C)CO)C[C@H]1C	2.7	1.5	1.2
COc1ccccc1NC(=O)N1C[C@@H](O)COC[C@@H]2O[C@@H](CC(=O)N3CCC(Cc4ccccc4)CC3)CC[C@H]21	-3.7	-6.3	2.6
CC(C)CC#Cc1ccc([C@H]2[C@@H](CO)N3CCCCN(S(=O)(=O)c4ccc(F)cc4)C[C@@H]23)cc1	-34.3*	-25.9*	-8.4*
COc1ccc2c3c([nH]c2c1)[C@H](CO)N(Cc1ccccc1)CC31CCN(S(=O)(=O)c2ccc(C)cc2)CC1	u	x	x
Cc1cccc(NC(=O)Nc2ccc3c(c2)C(=O)N(C)[C@@H]2CC[C@H](CC(=O)NCc4ccccc4Cl)O[C@@H]2CO3)c1	-5.0	-6.2	1.2
CCS(=O)(=O)N1CC2(CN(C(=O)Nc3cccc(F)c3)[C@H](CO)c3c2c2ccc(OC)cc2n3C)C1	-6.5	-5.7	-0.8
COc1ccc2c3c([nH]c2c1)[C@H](CO)N(C(=O)NC1CCCC1)CC31CN(C(=O)Nc2cccc(F)c2)C1	-8.8	-6.2	-2.7
O=C([C@H]1[C@H](CO)[C@H]2Cn3c(ccc(-c4cncnc4)c3=O)[C@H]2N1CC1CC1)N1CCCCC1	-0.4	0.7	-1.1
CNC(=O)C[C@H]1CC[C@@H]2[C@H](COc3ccc(NC(=O)Nc4cccc(C)c4)cc3C(=O)N2C)O1	-3.1	1.0	-4.0
COc1ccc(S(=O)(=O)Nc2ccc3c(c2)C(=O)N([C@H](C)CO)C[C@@H](C)[C@H](CN(C)C(=O)c2ccncc2)OCCCC[C@@H](C)O3)cc1	-0.9	0.9	-1.8
O=C(Cc1ccccn1)NCC[C@@H]1CC[C@@H](NC(=O)Nc2ccc(C(F)(F)F)cc2)[C@H](CO)O1	1.2	-3.9	5.0
CO[C@H](CN(C)S(=O)(=O)c1ccc(C)cc1)[C@@H](C)CN(C(=O)Nc1ccccc1F)[C@@H](C)CO	1.9	5.3	-3.3
O=C(C1CCCC1)N1[C@@H](CO)[C@@H](c2ccccc2)C12CN(CCC(F)(F)F)C2	u	x	x
Cc1noc(C)c1S(=O)(=O)N(C)C[C@@H]1Oc2ccc(NS(=O)(=O)c3cn(C)cn3)cc2CC(=O)N([C@H](C)CO)C[C@H]1C	-3.3	-0.3	-3.0
O=C(NCCc1ccncc1)[C@@H]1[C@@H](CO)[C@@H]2Cn3c(ccc(-c4ccncc4)c3=O)[C@@H]2N1C(=O)C1CC1	7.6	1.5	6.1
C[C@@H]1CN([C@H](C)CO)C(=O)CCCn2nncc2CO[C@H]1CN(C)Cc1ccc2cccnc2c1	4.8	2.5	2.4
C[C@@H]1CN([C@@H](C)CO)C(=O)CCCn2nncc2CO[C@@H]1CN(C)Cc1ccncc1	3.2	-3.1	6.3
C[C@H]1CN([C@@H](C)CO)C(=O)c2cc(C#CC3CCCC3)cnc2O[C@H]1CN(C)C(=O)Cc1ccccn1	5.6	-0.3	6.0
CNC(=O)C[C@@H]1CC[C@H]2[C@@H](COc3ccc(NC(=O)Nc4cccc(C)c4)cc3C(=O)N2C)O1	2.3	-0.1	2.4
CCNC(=O)C[C@@H]1CC[C@H]2[C@@H](COC[C@H](O)CN2C(=O)Nc2ccc(Cl)c(Cl)c2)O1	3.3	-0.4	3.7
CCNC(=O)C[C@@H]1CC[C@H]2[C@@H](COC[C@H](O)CN2C(=O)c2cc(Cl)cc(Cl)c2)O1	3.2	2.2	1.0
O=C(C[C@@H]1CC[C@@H]2[C@H](COC[C@H](O)CN2C(=O)c2ccccc2F)O1)NCc1ccc(Cl)c(Cl)c1	-2.3	1.1	-3.4
C[C@@H]1CCCCO[C@H](CN(C)S(=O)(=O)c2ccccc2)[C@@H](C)CN([C@@H](C)CO)C(=O)c2cc(NC(=O)CCC(F)(F)F)ccc2O1	3.8	3.4	0.4
CO[C@@H]1CN(C)C(=O)c2cc(NC(=O)Nc3cccc(Cl)c3)ccc2OC[C@@H](C)N(C(=O)Nc2c(C)noc2C)C[C@H]1C	-5.4	-2.4	-3.0
Cc1cccc(S(=O)(=O)N2C[C@H](O)COC[C@@H]3O[C@@H](CC(=O)NCc4ccc5c(c4)OCO5)CC[C@H]32)c1	10.5	9.0	1.5
CCCNC(=O)N1C[C@@H]2[C@H](c3ccccc31)[C@@H](CO)N2Cc1ccccc1F	-1.6	-5.2	3.6
O=C(Cc1cccnc1)N1CC(=O)N2[C@H](CO)[C@H](c3ccc(-c4cccc(F)c4)cc3)[C@@H]2C1	10.1	9.1	1.0
CN1CCN(C(=O)C[C@@H]2C[C@@H]3c4cc(NC(=O)Nc5ccc(C(F)(F)F)cc5)ccc4O[C@@H]3[C@@H](CO)O2)CC1	u	x	x
O=C(C1CCCCC1)N1[C@H](CO)[C@H]2c3ccccc3N(S(=O)(=O)c3ccccc3)C[C@H]21	0.2	-0.4	0.7
O=C1N[C@@H](Cc2ccccc2)COCc2cn(nn2)CC[C@H]1Cc1cccc(F)c1	-4.8	-0.8	-4.1
COc1ccc(NC(=O)N(C)C[C@@H]2OCc3cnnn3CCCC(=O)N([C@H](C)CO)C[C@@H]2C)cc1	8.7	5.0	3.7
CC=Cc1ccc2n(c1=O)C[C@H]1[C@H](CO)[C@@H](C(=O)NCCc3ccccc3)N(C(C)=O)[C@@H]21 (mixture of isomers)	7.7	7.6	0.1

Next compounds follow:
SMILES	DUX4 txn inh	DUX4 txn inh difference	DUX4 txn inh control
O=C(C1CCC1)N1CC[C@H]2[C@H](CO)Nc3ccc(C4=CCCCC4)cc3[C@H]21	23.0	21.1	2.0
COc1ccc2c3c(n(C)c2c1)[C@H](CO)N(C)CC31CN(C(=O)c2cccnc2)C1	10.0	4.4	5.7
COC(=O)C[C@H]1CC[C@@H]2[C@H](COc3ccc(NC(=O)c4ccc(C(F)(F)F)cc4)cc3C(=O)N2C)O1	1.8	-1.5	3.3
CC(C)NC(=O)N[C@H]1C=C[C@@H](CC(=O)NCCCN(C)C)O[C@@H]1CO	4.9	2.8	2.2
COc1ccc2c3c([nH]c2c1)[C@@H](CO)N(Cc1nccs1)CC31CCN(Cc2nccs2)CC1	-4.7	2.4	-7.1
CO[C@H]1CC[C@@H]2CCN(C)C(=O)CCCN(C)C(=O)c3cccc(C#N)c3OC[C@H]1O2	5.3	7.6	-2.3
C[C@H](CO)N1C[C@H](C)[C@H](CN(C)Cc2ccc(Oc3ccccc3)cc2)Oc2ccc(NS(=O)(=O)c3ccc(F)cc3)cc2C1=O	-0.8	1.8	-2.6
N#C[C@@H]1[C@@H](c2ccc(-c3ccccc3F)cc2)[C@@H](CO)N1C(=O)C1CC1	-3.2	-2.3	-0.9
COCC#Cc1ccc([C@H]2[C@@H](CO)N3C(=O)CN(C(=O)Nc4ccccc4F)C[C@@H]23)cc1	6.7	4.2	2.5
CC(C)NC(=O)N1C[C@@H]2[C@H](c3ccccc31)[C@H](CO)N2C(=O)c1ccccc1F	-3.6	-4.4	0.7
CN1CCCCN2[C@@H](CO)[C@@H](c3ccc(-c4ccccc4)cc3)[C@@H]2C1	7.9	-7.5	15.5
C[C@@H]1CCCCO[C@@H](CN(C)C(=O)Cc2ccccc2)[C@H](C)CN([C@@H](C)CO)C(=O)c2cc(NC(=O)CCCN(C)C)ccc2O1	1.8	2.4	-0.6
O=C(C[C@@H]1CC[C@@H]2[C@H](COC[C@H](O)CN2S(=O)(=O)c2cccc(F)c2)O1)NCCCN1CCOCC1	10.8	10.6	0.2
C[C@@H]1CN([C@@H](C)CO)C(=O)CCCn2nncc2CO[C@H]1CN(C)C(=O)Nc1ccc(-c2cccs2)cc1	-4.3	-0.7	-3.6
Cc1ccc(S(=O)(=O)Nc2cccc3c2O[C@@H](CN(C)C(=O)Nc2ccc(C(F)(F)F)cc2)[C@@H](C)CN([C@H](C)CO)C3=O)cc1	-1.8	-3.2	1.3
COc1ccccc1CN(C)C[C@H]1OCc2ccccc2-c2ccccc2C(=O)N([C@@H](C)CO)C[C@H]1C	u	x	x
CN1C(=O)c2cc(NC(=O)Cc3ccccc3)ccc2OC[C@@H]2O[C@@H](CC(=O)NCc3ccc(Cl)cc3)CC[C@H]21	2.7	-2.8	5.5
C[C@@H]1CN([C@H](C)CO)S(=O)(=O)c2ccc(C#Cc3cccnc3)cc2O[C@@H]1CN(C)C(=O)Nc1ccc2c(c1)OCO2	4.8	-1.4	6.1
O=C(C[C@@H]1CC[C@H]2[C@@H](COC[C@H](O)CN2Cc2ccccc2)O1)NCCCN1CCOCC1	-2.1	-5.8	3.7
CCS(=O)(=O)Nc1ccc2c(c1)C(=O)N(C)[C@H]1CC[C@H](CC(=O)NC3CCCCC3)O[C@@H]1CO2	-1.1	-1.1	0.0
COCC#Cc1ccc([C@H]2[C@@H](CO)N3C(=O)CN(C(=O)Nc4cc(F)ccc4F)C[C@@H]23)cc1	15.3	4.4	10.9
CCS(=O)(=O)Nc1ccc2c(c1)C(=O)N(C)[C@H]1CC[C@H](CC(=O)NC3CCCCC3)O[C@H]1CO2	-0.4	1.4	-1.8
O=C(Nc1ccccc1)N1C[C@H]2[C@@H](c3ccccc31)[C@H](CO)N2C(=O)c1ccncc1	-8.2	-0.1	-8.1
CCCNC(=O)[C@@H]1[C@@H](CO)[C@@H]2Cn3c(ccc(-c4cccnc4)c3=O)[C@@H]2N1Cc1cocn1	-1.0	0.7	-1.7
C[C@H](CO)N1C[C@H](C)[C@@H](CN(C)Cc2cccc(C(F)(F)F)c2)OCc2ccccc2-c2c(n(C)c3ccccc23)C1=O	-54.1*	-25.3*	-28.8*
O=C(C1CCCC1)N1CC2(C1)[C@@H](c1ccccc1)[C@@H](CO)N2CCC(F)(F)F	-4.4	0.5	-4.9
